# SARS PLP yeast: inhibitors of SARS-CoV papain-like protease in yeast | S. cerevisiae expressing SARS-CoV PLpro, growth rescue; control for the full effect not named in the record | Potency, µM (titrated, usually from 32.9 µM), without a hit: at the highest dose activity, positive = growth rescue | 330,000 compounds, 0.19% hits; also: 0% is about no effect; nearly all actives have a fitted effect of over 55% in size; growth read by luminescence after 48 h
# Cruzain Triton: inhibitors of Trypanosoma cruzi cruzain with detergent | P25779 | purified cruzain, Z-FR-AMC fluorescence, 0.01% Triton | Potency, µM, without a hit: max response, negative = inhibition, most hits filed as inhibitors | 200,000 compounds, 0.43% hits | AID 1478; active = well fitted curve in the direction sought with a large enough effect; inconclusive = small, poorly fitted or top-dose-only effect, or another doubt; inactive = no such curve, though single readings can be large; an effect the other way counts as inactive or inconclusive;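 also: plate controls were neutral wells for no effect and buffer without enzyme for full effect; nearly all actives have a fitted effect of over 40% in size; top concentration of the series not given in the record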
# Target sequence (P25779 123-467 limits assumed): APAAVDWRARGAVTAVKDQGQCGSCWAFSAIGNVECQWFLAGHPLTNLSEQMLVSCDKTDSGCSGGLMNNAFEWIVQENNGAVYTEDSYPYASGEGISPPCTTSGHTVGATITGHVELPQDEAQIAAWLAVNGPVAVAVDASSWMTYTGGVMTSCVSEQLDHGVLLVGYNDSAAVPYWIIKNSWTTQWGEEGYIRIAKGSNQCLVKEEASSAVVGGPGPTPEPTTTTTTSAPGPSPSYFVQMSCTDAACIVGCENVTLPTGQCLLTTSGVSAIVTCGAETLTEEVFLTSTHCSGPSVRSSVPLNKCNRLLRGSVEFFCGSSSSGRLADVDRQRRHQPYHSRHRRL
#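 Purified cruzain (1.5 nM final) was preincubated with compounds for 15 min at room temperature in 100 mM sodium acetate pH 5.5, 5 mM DTT, 0.01% Triton X-100. Reaction started with 2 uM Z-FR-AMC; AMC fluorescence change over 60 s gave activity.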
# RE007 growth inh: less growth of the S. pombe RE007 Vpr strain; S. pombe RE007 Vpr strain, BacTiter-Glo ATP luminescence, 24 h; control for the full effect not named in the record; Potency, µM (top dose mostly 92.2 µM), for the others: at the highest dose activity change, negative = less growth; 360,000 compounds, 0.21% hits; AID 651644; active = well fitted falling curve with a large enough effect; inconclusive = small, poorly fitted or top-dose-only effect; inactive = no such curve, though single readings can be large or run the other way;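 also: % is scaled to controls: 0 for no effect and ±100 for the full control effect; nearly all actives have a fitted effect of over 50% in size; the assay follows cell death caused by Vpr and the record does not say whether a fall means rescue or toxicity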
#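 Fission yeast RE007 carrying one integrated HIV-1 vpr copy, seeded at OD 0.01 in PMG+AL medium with 23 nL pinned compound. Grown 24 h at 30 degrees; viability read by BacTiter-Glo luminescence after 5 min.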
# NS1 inh: blocks influenza NS1 protein function; S. cerevisiae slowed by influenza A NS1, growth recovery by OD600; 270,000 compounds, 0.4% hits; Potency, µM (titrated, usually from 46.1 µM), for the others: top-dose activity, positive = more growth; also: actives are rising curves; nearly all actives have a fitted effect of over 50% in size
#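 OD600 was taken as the measure of yeast growth restored by compound in an NS1-expressing S. cerevisiae strain. Cells had been washed out of glucose medium and diluted 1:100 into galactose -URA medium, pH 6.0.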
# Cruzain inh noDet: blocks cruzain activity in detergent-free assay. purified cruzain, Z-FR-AMC fluorescence, no detergent. Potency, µM, for the others: max response, negative = inhibition, hits mostly inhibitors. 200,000 compounds, 2.3% hits. AID 1476; active = well fitted curve in the direction sought with a large enough effect; inconclusive = small, poorly fitted or top-dose-only effect, or another doubt; inactive = no such curve, though single readings can be large; an effect the other way counts as inactive or inconclusive;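 also: plate controls were enzyme without inhibitor for no effect and buffer without enzyme for full effect; nearly all actives have a fitted effect of over 40% in size; top concentration of the series not given in the record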
#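 Detergent-free condition (0.00005% Triton X-100) in acetate buffer pH 5.5 with DTT. 1.5 nM enzyme and compound were pre-mixed 15 min, then 2 uM Z-FR-AMC substrate added; reaction progress from fluorescence change between first and third reads (60 s).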
# 2A StopGo: lowers the luciferase signal of an FMDV 2A StopGo reporter | Potency, µM (highest dose often 57.9 µM), for inactives: top-dose signal change, negative = less light | 410,000 compounds, 1.2% hits | human cells with a luciferase reporter of 2A StopGo recoding; control for the full effect not named in the record | AID 1159524; active = well fitted falling curve with a large enough effect; inconclusive = small, poorly fitted or top-dose-only effect; inactive = no such curve, though single readings can be large or run the other way; tested in HEK293T cells; also: % is scaled to controls: 0 for no effect and ±100 for the full control effect; nearly all actives have a fitted effect of over 45% in size; luciferase light after 4 h
# Lassa entry inh: inhibitors of Lassa virus binding or cell entry; 300,000 compounds, 1.2% hits; Potency, µM (series often up to 37.9 µM), without a hit: top-dose activity change, negative = inhibition, hits mostly inhibitors; Lassa virus pseudotype entry inhibition, cell reporter; control for the full effect not named in the record; active means well fitted inhibition curve with a large enough effect; inconclusive means small, poorly fitted or top-dose-only effect, or effect the other way; inactive means flat fitted curve, though single readings scatter; tested in HEK293 cells; also: % is scaled to controls: 0 for no effect and ±100 for the full control effect; nearly all actives have a fitted effect of over 50% in size; luciferase read-out
# MARV entry inh: inhibitors of Marburg virus binding or cell entry | Potency, µM (titrated, usually from 37.8 µM), for the others: at the top dose activity change, negative = inhibition, actives largely listed as inhibitors | Marburg virus pseudotyped entry inhibition, cell reporter; control for the full effect not named in the record; about a third of the inactives were read at about 46 µM | 300,000 compounds, 1.8% hits | AID 540276; active = well fitted inhibition curve with a large enough effect; inconclusive = small, poorly fitted or top-dose-only effect, or effect the other way; inactive = flat fitted curve, though single readings scatter; tested in HEK293 cells; about a fifth of its hits are not listed in these tables; also: % is scaled to controls: 0 for no effect and ±100 for the full control effect; luciferase read-out
# The depositor's hits bear a star; ? = inconclusive; . = no result given; & = joins results of further samples; [ ] = remark or other dose. Unless noted, calls follow the shape of the dose curve; as a rule, active means well fitted rising curve with a large enough effect; inconclusive means small, poorly fitted or top-dose-only effect; inactive means no such curve, though single readings can be large or run the other way. Potency is read from the fitted curve at half-maximal effect.
SMILES,SARS PLP yeast,Cruzain Triton,RE007 growth inh,NS1 inh,Cruzain inh noDet,2A StopGo,Lassa entry inh,MARV entry inh
CCc1ccccc1NC(=O)c1ccc([N+](=O)[O-])s1,-28%,.,?,.,.,-25%,-13%,7%[14.2 µM]
NS(=O)(=O)c1cccc(NC(=O)COC(=O)/C=C/c2ccco2)c1,0%,.,-9%,3%,.,18%,?,-15%[46.1 µM]
O=c1n(Cc2ccc([N+](=O)[O-])cc2)c2ccccc2c2nc(-c3ccccc3)nn12,.,3.4%,.,.,9%,2%,22%[46.1 µM],.
CCNC(=O)CP(=O)(c1ccccc1)c1ccccc1,-2%,6.6%,0%,6%,13%,-21%,7%,22%
O=C(CSc1n[nH]c(-c2ccco2)n1)Nc1ccc(F)cc1,1%,.,8%,23%,.,-14%,13%,-5%[46.1 µM]
CC(C)CCN1CCN(Cc2cccc3cccnc23)CC1CCO (stereo not drawn),0%,.,-27%,1%,.,-11%,12%,-1%[46.1 µM]
CCc1ccc(C2C(C#N)=C(N)N(N(C)C)C3=C2C(=O)CCC3)s1 (stereo not drawn),?,-6.2%,0%,18%,-1%,-11%,17%,13%
N#Cc1c(N)sc(=S)c2c1CCCC2,7%,-13%,-22%,3%,-2%,0%,-7%,6%
CC(C)(C)OC(=O)NCCc1nnc(SCC(=O)c2ccc(Cl)cc2)o1,-1%,-13%,-3%,-3%,5%,?,?,?
CC(=O)Nc1ccc(NC(=O)c2c(C)nn(Cc3ccccc3Cl)c2C)cc1,-7%,.,-4%,-4%,.,39%[activator],-5%[46.1 µM],?
CCN(CC)CCCNC(=S)N(Cc1cccnc1)Cc1cc2cc(C)ccc2[nH]c1=O,0%,.,-3%,-5%,.,-29%,.,.
O=C(Nc1ccc(NC(=S)NC(=O)c2ccco2)cc1)c1ccccc1,-24%,.,-7%,-10%,.,21%,5%[46.1 µM],?
Cc1ccc(CN(Cc2ccco2)C(=O)COc2ccc(Cl)cc2Cl)cc1,.,-2.1%,.,.,?,?,14%[46.1 µM],?
CN1CCN(c2ccc([N+](=O)[O-])cc2S(=O)(=O)N2CCOCC2)CC1,6%,-2.5%,1%,2%,2%,-5%,9%,4%[46.1 µM]
CCOC(=O)C1(Cc2ccc(Cl)cc2)CCN(C(=O)c2cc(C)nc(C)n2)CC1,0%,.,17%,-4%,.,-15%,13%,-20%[46.1 µM]
COc1ccc(CCNC(=O)c2cc(-c3cc(C)cc(C)c3O)n[nH]2)cc1OC,0%,.,8%,3%,.,-22%,.,.
Nc1ncc(Br)cc1S(=O)(=O)NCCC(=O)NCCc1ccccc1,-4%,.,3%,7%,.,58%[activator],.,.
Cc1ccccc1NC(=O)N1CCCC(c2nc(-c3ccc(C(C)C)cc3)no2)C1 (stereo not drawn),-6%,-4.6%,7%,?,17%,?,?,?
O=C(Nc1ccc(OCC(=O)N2CCOCC2)cc1)Nc1cccc2ccccc12,1%,.,-1%,-7%,.,21%,3%,16%
COc1ccc(C(=O)NCc2cccnc2)cc1OC,2%,-0.5%,-13%,8%,-4%,11%,10%[14.3 µM],10%
Cc1cc(SCC(=O)c2ccccc2)n2nc(C)nc2n1,17%,-3.7%,1%,4%,-13%,-15%,.,.
Cc1ccc(N2N=C(C(=O)O)CCC2=O)cc1Cl,5%,.,14%,-5%,.,3%,.,.
Cc1ccc(C(=O)Nc2cc3ccccc3oc2=O)cc1,-3%,.,13%,5%,.,2µM*,2.8µM*,?
COc1ccc(-n2nc3c(N4CCCC(C(=O)NCc5ccc(C)cc5)C4)nnc(C)c3c2C)cc1 (stereo not drawn),.,-3.9%,.,.,-6%,-3%,?,.
Nc1cc2c3ccccc3ccc2c2ccccc12,.,.,?,.,.,43%[activator],?,?

# Full records, looked up by structure. Screens in order: SARS PLP yeast | Cruzain Triton | RE007 growth inh | NS1 inh | Cruzain inh noDet | 2A StopGo | Lassa entry inh | MARV entry inh
# `CCc1ccc(C2C(C#N)=C(N)N(N(C)C)C3=C2C(=O)CCC3)s1` (stereo not drawn) is entered as ? | -6.2% | 0% | 18% | -1% | -11% | 17% | 13%
# `Nc1cc2c3ccccc3ccc2c2ccccc12` is entered as . | . | ? | . | . | 43%[activator] | ? | ?
# `CCOC(=O)C1(Cc2ccc(Cl)cc2)CCN(C(=O)c2cc(C)nc(C)n2)CC1` is entered as 0% | . | 17% | -4% | . | -15% | 13% | -20%[46.1 µM]
# `O=c1n(Cc2ccc([N+](=O)[O-])cc2)c2ccccc2c2nc(-c3ccccc3)nn12` is entered as . | 3.4% | . | . | 9% | 2% | 22%[46.1 µM] | .
# `CC(C)CCN1CCN(Cc2cccc3cccnc23)CC1CCO` (stereo not drawn) is entered as 0% | . | -27% | 1% | . | -11% | 12% | -1%[46.1 µM]

# New compounds follow.
SMILES,SARS PLP yeast,Cruzain Triton,RE007 growth inh,NS1 inh,Cruzain inh noDet,2A StopGo,Lassa entry inh,MARV entry inh
COc1ccc(OC)c(N/C=C/C(=O)c2ccccc2)c1,-5%,.,-16%,-30%,.,6.3µM*,.,1µM*
C[N+]1(CC(O)COc2ccccc2)CCN(C(=O)c2ccc([N+](=O)[O-])cc2)CC1 (stereo not drawn),18%,-0.1%,15%,8%,2%,-23%,?,18%
CCc1ccc(CNC(=O)c2nn(-c3ccc(OC)c(Cl)c3)c(=O)c3c2c2ccccc2n3C)cc1,.,-0.5%,.,.,4%,-13%,4%[46.1 µM],?
CCOC(=O)N1CCC(NC(=O)C2CCN(S(=O)(=O)c3cnc[nH]3)CC2)CC1,1%,5.2%,2%,4%,-4%,15%,8%,23%
CCc1c(-c2ccccc2)nc2ccccc2c1C(=O)N1CCC2(CC1)OCCO2,-4%,.,-3%,-2%,.,-10%,.,.
C/C(=N\NC(=O)c1ccc([N+](=O)[O-])cc1Cl)c1ccccc1,-1%,.,0%,-2%,.,61%[activator],.,.
COc1ccc(-c2nc(CN3CCC(C(=O)NCCc4ccccc4)CC3)c(C)o2)cc1OC,.,0.5%,.,.,-3%,0%,-2%[46.1 µM],-2%[46.1 µM]
O=C(NCc1cccnc1)C1CC(=O)N(c2ccc(F)cc2)C1 (stereo not drawn),6%,2.5%,9%,-6%,0%,-11%,3%,1%
COc1cc(C(=S)N2CCCC2)cc(Cl)c1OCC(=O)Nc1ccc(C)cc1C,-24%,-26%,-9%,6%,4%,-17%,0%,-30%
COc1ccc(-c2noc(CC(=O)N(C)c3cccc(C)c3)n2)cc1,.,-4.3%,.,.,5%,-26%,-15%[46.1 µM],.
Cc1ccc(NC(=O)c2cc(C)nc3ccccc23)cc1,-3%,.,8%,-12%,.,-1%,.,.
CC(=O)NS(=O)(=O)c1ccc(NC(=S)NC(=O)CC(C)C)cc1,0%,.,-5%,10%,.,5%,0%,5%[46.1 µM]
Cc1cccc(NC(=O)CSc2nc3sc(C)cc3c(=O)n2C)c1,.,.,4%,.,.,-15%,-27%,?
CCN(CC)C(=O)c1sc2c(c1C)c(=O)n(CCc1ccccc1)c(=O)n2Cc1cc(C)ccc1C,.,1.7%,.,.,0%,-3%,?,.
O=C(Nc1cccc(Cl)c1)c1cc(S(=O)(=O)N2CCCCC2)c[nH]1,10%,.,-5%,5%,.,46%[activator],.,.
COC(=O)c1ccccc1OC(=O)c1cccnc1,-3%,7.2%,9%,-6%,5%,10%,-8%,?
O=C(O)c1ccc(CNCc2ccc(Cl)cc2)cc1,10%,0.5%,-6%,6%,2%,-12%,-6%,0%
COc1ccc(C(CNC(=O)c2cc(C)on2)N(C)C)cc1 (stereo not drawn),4%,.,7%,2%,.,-4%,4%,?
CCC(=O)N1CCc2cc(S(=O)(=O)CCC(=O)NCCC3=CCCCC3)ccc21,-2%,2.4%,1%,-8%,5%,-20%,-16%,-2%[46.1 µM]
COc1ccc(-n2nc(C(=O)NCC(=O)N3CCN(c4ccccn4)CC3)c3ccccc3c2=O)c(OC)c1,.,.,-14%,.,.,26%,?,-17%[46.1 µM]
Cc1onc(-c2ccccc2Cl)c1C(O)c1ccc(F)cc1 (stereo not drawn),0%,.,21%,-10%,.,-14%,6%,-8%
Nc1nc(NS(=O)(=O)c2ccc(Cl)cc2)nn1-c1ccccc1,0%,.,13%,-2%,.,1%,9%,-1%
CC(O)CNCCOc1cccc(Oc2ccccc2)c1 (stereo not drawn),0%,.,-1%,6%,.,-22%,0%,?
Cc1cccc(NC(=O)/C(=C\c2ccco2)NC(=O)c2cccs2)c1,-6%,-8.8%,-26%,-16%,-3%,-15%,-6%,-3%
CCC1(C)COC(c2ccc(OC)c(OC)c2)OC1 (stereo not drawn),.,.,?,.,.,-10%,20%,25%
CCn1c(=O)cc(OCC(=O)NCCC(C)C)c2ccccc21,3%,-1.6%,-4%,?,9%,-20%,.,.
Cc1cc(=O)n(-c2ccccc2)n1C,0%,0.6%&-1.8%,5%,.,0%&-4%,-10%&-3%,.,.
Cc1cc(C)nc(N(C#N)CC(=O)N(c2ccccc2)C(C)C)n1,-3%,3.2%,-5%,0%,0%,0%,2%,13%
COCCCn1c(=NC(=O)c2ccccc2)c(C#N)cc2c(=O)n3cccc(C)c3nc21,-1%,.,2%,6%,.,-22%,-3%,?
CCCC(=O)Nc1c(-c2cccc(OC)c2)c(=O)c2ccccc2n1C,5%,.,8%,-5%,.,-16%,.,.

# In a second layout: entries from further up
# Values run as follows: SARS PLP yeast	Cruzain Triton	RE007 growth inh	NS1 inh	Cruzain inh noDet	2A StopGo	Lassa entry inh	MARV entry inh
NS(=O)(=O)c1cccc(NC(=O)COC(=O)/C=C/c2ccco2)c1
 : 0%	.	-9%	3%	.	18%	?	-15%[46.1 µM]
O=c1n(Cc2ccc([N+](=O)[O-])cc2)c2ccccc2c2nc(-c3ccccc3)nn12
 : .	3.4%	.	.	9%	2%	22%[46.1 µM]	.
CCNC(=O)CP(=O)(c1ccccc1)c1ccccc1
 : -2%	6.6%	0%	6%	13%	-21%	7%	22%
O=C(CSc1n[nH]c(-c2ccco2)n1)Nc1ccc(F)cc1
 : 1%	.	8%	23%	.	-14%	13%	-5%[46.1 µM]

# Compound activity from PubChem.
